Bioassay records: PubChem, National Center for Advancing Translational Sciences (NCATS)
D2 PAM: Beta-Arrestin HTS for Positive Allosteric Modulators of the Human D2 Dopamine Receptor: Potentiators; potentiation, % (concentration not given with the values); AID 624464, 2012; DiscoveRx D2 beta-arrestin cells, luminescence, 90 min; 100% = 57 uM dopamine signal; 360,000 tested, 0.23% active; active = potentiation of 50% or more; inconclusive = 30% to 50%; inactive = 30% or less;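 also: compound concentration not given in the record; tested on top of an EC20 dose of dopamine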
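PathHunter D2 cells, attached overnight at 37 deg C, received compound in DMSO plus dopamine at EC20 (50 nM final) for 90 min at 37 deg C. Beta-arrestin recruitment was read as luminescence after 1 h with detection reagent at ambient temperature.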
gsp ag: qHTS for Agonist of gsp, the Etiologic Mutation Responsible for Fibrous Dysplasia/McCune-Albright Syndrome: qHTS; gsp mutant cells, cAMP HTRF, 30 min; control for the full effect not named in the record; Potency, µM (top dose mostly 76.9 µM), without a hit: at the top dose activation (cAMP increase), most hits filed as activators; 340,000 tested, 0.13% active; active = well fitted activation curve with a large enough effect; inconclusive = small, poorly fitted or top-dose-only effect, or another doubt; inactive = no such curve, though single readings can be large or run the other way; cell line not stated here;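 also: phosphodiesterase inhibitor Ro 20-1724 added with compounds to block cAMP breakdown; potency is read from the fitted curve at half-maximal effect; nearly all actives have a fitted effect of over 60% in size; about a fifth of the inactives were tested at one dose only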
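Cells stably selected in G418 were plated at 2000/well, grown 16-24 hr, then given compounds in DMSO with the PDE inhibitor […] (300 uM solution added) for 30 min at 37C; cAMP was read by HTRF.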
Menin MLL FP FL: qHTS Assay for Inhibitors Targeting the Menin-MLL Interaction in MLL Related Leukemias: Competition With Fluorescein Labeled MLL-derived Peptide; Fluorescence polarization, fluorescein-MLL peptide displacement from menin; 290,000 tested, under 10 active; AID 1766, 2009; FP activity change, % at 61.4 µM; inconclusive = falling polarisation curve, or a change in total fluorescence; inactive = total fluorescence flat and polarisation flat or rising; no compound was filed as active; the % refers to the polarisation; negative = inhibition;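 also: % of control where 0% means no effect; inhibitors lower the polarisation; unlabelled MLL peptide was the positive control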
ClpP mod: qHTS Assay for Activators of ClpP. ATP-dependent Clp protease proteolytic subunit (Bacillus subtilis (strain 168)), P80244. purified B. subtilis ClpP, FRET peptide cleavage, 20 min. Potency, µM (series often up to 57.5 µM), without a hit: top-dose activity change, negative = active. 340,000 tested, 1.9% active; active = well fitted falling curve with a large enough effect; inconclusive = small, poorly fitted or top-dose-only effect; inactive = no such curve, though single readings can be large or run the other way; also: potency is read from the fitted curve at half-maximal effect; the source files actives as falling curves though it sought activators and does not explain the sign; nearly all actives have a fitted effect of over 65% in size; many hits overshoot -100%
Target sequence (P80244 whole entry, looked up): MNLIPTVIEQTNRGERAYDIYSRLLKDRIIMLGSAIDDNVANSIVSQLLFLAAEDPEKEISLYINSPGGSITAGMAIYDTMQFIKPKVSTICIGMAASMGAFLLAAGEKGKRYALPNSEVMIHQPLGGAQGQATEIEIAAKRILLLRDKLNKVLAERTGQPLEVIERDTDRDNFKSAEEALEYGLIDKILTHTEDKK
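Purified B. subtilis ClpP, 10 microg/mL final in Tris/HCl pH8 with KCl, BSA, glycerol and Tween-20, cleaved an Abz/nitrotyrosine-quenched decapeptide. Fluorescence (ex 320, em 430) was read at 0 and 20 min at room temperature. Delta was normalized to 5.8 microM ADEP and DMSO/no-enzyme controls.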
gsp antagonist: qHTS for Antagonists of gsp, the Etiologic Mutation Responsible for Fibrous Dysplasia/McCune-Albright Syndrome: qHTS | Potency, µM (highest dose often 76.9 µM), without a hit: at the highest dose activity change, negative = inhibition, actives largely listed as inhibitors | gsp-mutant cells, cAMP HTRF, 30 min; control for the full effect not named in the record | 340,000 tested, 0.4% active; active = falling curve of any shape with a large fitted effect; inconclusive = falling curve, mostly with a smaller effect; inactive = flat or rising curve; cell line not stated here;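 also: intracellular cAMP measured with PDE inhibitor Ro 20-1724 present during compound exposure; potency is read from the fitted curve at half-maximal effect; % is scaled to controls: 0 for no effect and ±100 for the full control effect; nearly all actives have a fitted effect of over 65% in size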
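Measurement of cellular cAMP by homogeneous time-resolved fluorescence following a 30 min compound exposure at 37C. The PDE inhibitor […] was present throughout; the assay buffer was DPBS with 0.05% BSA and 0.005% Tween 20.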
Sfp inh: qHTS Assay for Inhibitors of Bacillus subtilis Sfp phosphopantetheinyl transferase (PPTase). 310,000 tested, 3.5% active. Potency, µM, for the others: max response, negative = inhibition, hits mostly inhibitors. Biochemical Sfp PPTase activity, qHTS. 4'-phosphopantetheinyl transferase ffp (Bacillus subtilis), Q9F4F7; active = well fitted inhibition curve with a large enough effect; inconclusive = small, poorly fitted or top-dose-only effect, or another doubt; inactive = no such curve, though single readings can be large or run the other way;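 also: the enzyme is Sfp with the accession as filed and its product quenches rhodamine fluorescence; potency is read from the fitted curve at half-maximal effect; 0% = enzyme reaction without inhibitor and -100% = no enzyme wells; top concentration of the series not given in the record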
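Sfp 15 nM + cpd, 15 min RT; start w/ rhodamine-CoA 5 uM, BHQ-2-YbbR 12.5 uM (final); 50 mM Hepes pH 7.6, 10 mM MgCl2, 0.01% NP-40, 0.01% BSA; read 525/598 nm at 0 and 30 min.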
TRPV1 PAM: HTS Assay for Compounds that Act as Potentiators of the Vanilloid Receptor 1; Transient receptor potential cation channel subfamily V member 1 (Homo sapiens), Q8NER1; TRPV1-expressing cells, Fluo-8 calcium influx, capsaicin EC20 potentiation; host cell line not named in the record; control for the full effect not named in the record; potentiation, % at 8.33 µM; 320,000 tested, 0.02% active; AID 540277, 2011; active means potentiation above 80%; inconclusive means 30% to 80%; inactive means below 30%; also: 0% is about no effect
Target sequence (Q8NER1 whole entry, looked up): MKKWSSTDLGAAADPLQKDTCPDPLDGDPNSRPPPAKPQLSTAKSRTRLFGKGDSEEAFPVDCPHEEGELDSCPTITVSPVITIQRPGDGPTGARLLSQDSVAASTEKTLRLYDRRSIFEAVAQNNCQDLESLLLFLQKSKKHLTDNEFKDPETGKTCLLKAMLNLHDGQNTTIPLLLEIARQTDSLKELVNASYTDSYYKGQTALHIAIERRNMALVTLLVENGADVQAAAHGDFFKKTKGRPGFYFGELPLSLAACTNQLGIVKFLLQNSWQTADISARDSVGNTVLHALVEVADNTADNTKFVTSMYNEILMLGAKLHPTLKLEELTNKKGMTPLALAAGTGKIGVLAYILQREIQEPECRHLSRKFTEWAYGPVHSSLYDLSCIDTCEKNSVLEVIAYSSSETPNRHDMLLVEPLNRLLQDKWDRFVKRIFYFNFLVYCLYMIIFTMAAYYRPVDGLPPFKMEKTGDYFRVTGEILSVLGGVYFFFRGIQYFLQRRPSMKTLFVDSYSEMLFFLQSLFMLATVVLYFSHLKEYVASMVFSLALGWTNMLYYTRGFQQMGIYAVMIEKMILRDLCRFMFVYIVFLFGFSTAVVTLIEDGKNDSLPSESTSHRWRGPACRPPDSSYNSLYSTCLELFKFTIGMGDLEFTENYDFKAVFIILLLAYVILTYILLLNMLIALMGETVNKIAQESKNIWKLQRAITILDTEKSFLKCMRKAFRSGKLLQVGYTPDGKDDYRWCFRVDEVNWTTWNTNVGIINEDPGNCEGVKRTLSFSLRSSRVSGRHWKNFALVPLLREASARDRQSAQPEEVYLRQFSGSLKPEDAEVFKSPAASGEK
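Fluo-8 calcium influx in TRPV1-expressing cells, kinetic read (ex 480/em 520 nm). Compound added and read 3 min for agonist activity, followed by capsaicin at EC20 final and 2 min further read for enhancement.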
Active calls of the source: *; ? = inconclusive; / = not tested or not shown; & = joins results of further samples; [ ] = another dose, or the depositor's remark. Compounds as they come; 5.1% or so of the library scored in one or more.

SMILES	D2 PAM	gsp ag	Menin MLL FP FL	ClpP mod	gsp antagonist	Sfp inh	TRPV1 PAM
COc1ccc(NC(=O)NC[C@@H]2CC[C@@H](Cc3ccc(-c4ccccc4)cc3)O2)cc1	1	/	/	-3.8%	?	/	/
O=[N+]([O-])c1cccc(C(=S)N2CCN(c3ccccc3F)CC2)c1	-4	-2%[15.4 µM]	0.4	/	-3%	-20%	-2
Cc1ccccc1CSCCC(=O)NCCC1=CCCCC1	-3	-7%[15.4 µM]	5.0	-5.4%	-23%	3%	-20
c1ccc(COc2ccc(OCCCN3CCCC3)cc2)cc1	0	2%	-2.1	0.5%	-9%	-14%	5
CCN(CC)c1ccc(NC(=O)COc2ccc(C#N)cc2)cc1S(=O)(=O)Nc1ccc(OC)cc1	1	-12%[15.4 µM]	2.6	0.7%	-8%	-10%	9
Cc1ccccc1N1CCN(C2CCCN(C(=O)c3cnsn3)C2)CC1 (stereo not given)	-27	-21%	2.6	1.9%	2%	8%	0
CCOC(=O)c1sc(NC(=O)CCCCl)nc1C	-12	-58%[inhibitor]	4.6	-4.3%	12%	-26%	-14
Cc1oncc1C(=O)Nc1cccc2ccccc12	-6	?	-4.0	-1.8%	-2%	10%	-1
O=C(CCl)Nc1cn(-c2ccccc2)nc1-c1ccc(F)cc1	-6	7%[15.4 µM]	-1.1	0.3%	3%	-2%	-12
Cc1cccc(NC(=O)c2ccc(NCCO)c([N+](=O)[O-])c2)n1	-1	?	-1.3	/	-10%	4%	-4
Cc1ccc(CN2CCN(CCC(C)C)C(CCO)C2)s1 (stereo not given)	-18	-1%[15.4 µM]	2.3	/	19%	9%	-4
CCOc1ccccc1-n1c(COc2ccccc2)nnc1SCC(N)=O	-7	-10%	-1.4	-0.1%	10%	1%	3
COc1ccccc1NS(=O)(=O)c1cc(NC(=O)c2cnccn2)ccc1N1CCOCC1	-8	-84%[inhibitor]	3.6	-3.7%	-2%	-7%	-5
O=C(Nc1ccc(C(=O)O)cc1)/C(=C\C=C\c1ccccc1)NC(=O)c1cccc(Br)c1	-4	9%[15.4 µM]	0.9	/	-9%	-29%	-10
Cn1c(=O)c2c(ncn2CCCc2ccccc2)n(C)c1=O	-5	18%	-0.7	0.6%	12%	8%	-3
CN(C)S(=O)(=O)c1ccc(S(=O)(=O)N(CC(=O)Nc2ccccc2)CC2CCCO2)cc1 (stereo not given)	-3	?	-6.3	-0.7%	6%	-2%	2
O=C1c2ccccc2NC(c2cn[nH]c2-c2ccccc2)N1O (stereo not given)	-9	?	0.3	-1.0%	7%	4%	19
COCCNC(=S)NNc1ccc(Cl)c(C(=O)O)c1	-1	?	-0.8	-3.1%	1%	4µM*	/
COc1ccc(CCn2c(-c3cc([N+](=O)[O-])cc([N+](=O)[O-])c3)nc3nc4ccccc4nc32)cc1	23	12%	9.7	-8.2%	-2%	1%	10
O=C(c1ccc(F)cc1)N1CCCC(c2nc(-c3ccncc3)no2)C1 (stereo not given)	0	/	/	0.1%	0%	/	0
COCCCNc1nc(N)c([N+](=O)[O-])c(NCC2CCCO2)n1 (stereo not given)	0	-17%	0.5	/	8%	18%	1
CN(Cc1cccc2ncccc12)C(=O)CC1C(=O)NCCN1Cc1ccc(F)cc1 (stereo not given)	-2	-8%	-9.2	/	3%	0%	3
Cc1ccc(S(=O)(=O)NC(C)(C)CSc2ncccn2)cc1	-2	9%[15.4 µM]	-0.9	-2.0%	7%	6%	5
O=S(=O)(NCc1ccc2c(c1)OCO2)c1ccc2oc3ccccc3c2c1	-13	-10%	/	-3.8%	-31%	/	/
CCOCc1nnc(NC(=O)c2c(OC)cccc2OC)s1	7	-14%	0.0	-9.4%	-3%	-9%	-12
(cont.)
SMILES	D2 PAM	gsp ag	Menin MLL FP FL	ClpP mod	gsp antagonist	Sfp inh	TRPV1 PAM
C/C=C/c1ccc(OCCOc2ccc(C=O)cc2)c(OC)c1	-21	16%	2.7	-1.1%	-13%	?	5
CCOC(=O)c1c(NCC2CCCO2)c2ccccc2[nH]c1=O (stereo not given)	-15	?	1.5	-1.3%	2%	1%	2
Cn1c(SCC(N)=O)nnc1C1CCN(C(=O)NCc2ccccc2)CC1	12	-31%[inhibitor]	-0.5	-0.3%	-1%	17%	1
CC1C(=O)N2CCCc3cc(S(=O)(=O)N4CCN(c5cccc(Cl)c5)CC4)cc1c32 (stereo not given)	-13	-3%	/	-0.9%	-8%	/	-9
CC(Oc1ccc2c(-c3ccccc3)cc(=O)oc2c1)C(=O)NCC1CCC(C(=O)O)CC1 (stereo not given)	-18&2	-1%	1.3&-7.0	-11%&-7.6%	-10%&-17%	7%&17%	0&-5
Cc1cc(C)nc(N/N=C/C=C/c2ccccc2)n1	8	-9%	0.3	-1.5%	?	-6%	-4
O=C(O)C(c1ccccc1)C1(O)CCCC1 (stereo not given)	-4	8%	0.6	1.0%	0%	20%	4
Cc1nn(C)cc1S(=O)(=O)Nc1ccccc1Br	-17	10%	2.1	-0.6%	3%	-4%	6
Cc1c(C(=O)OCC[N+]2(C)CCCCC2)oc2ccccc12	-4	-23%	4.3	/	3%	-17%	4
COc1ccccc1C1CC(=O)Nc2cc3c(cc21)OCCO3 (stereo not given)	4	-22%	4.9	1.6%	4%	-8%	-7
Cc1ccc(Nc2nc(N3CCN(C)CC3)nc(N)c2[N+](=O)[O-])cc1C	/	/	1.9	/	/	-22%	14
O=C(Cn1cnc2ccccc2c1=O)Nc1ccc(N2CCOCC2)cc1	6	-7%[15.4 µM]	-0.9	/	-5%	-7%	3
Cc1cc(N2CCOCC2)n2ncc(-c3ccccc3Cl)c2n1	-3	15%[15.4 µM]	3.0	0.0%	-32%	7%	-23
Cc1nn(CC(=O)NCCc2ccc(Cl)cc2Cl)c(C)c1[N+](=O)[O-]	-10	4%[15.4 µM]	4.7	/	7%	14%	1
Cc1nn(C)c(C)c1/C=N/N=C1\CCC2C3CCc4cc(O)ccc4C3CCC12C (stereo not given)	-29	-11%	0.1	-1.8%	-19%	15%	-1
c1cn(CCCNC2CCCCCCC2)cn1	-9	14%[15.4 µM]	/	-0.2%	-8%	/	/
CCN(CC(=O)N1CCN(c2ccccc2)CC1)S(=O)(=O)c1ccc(C)cc1	-21	-59%[inhibitor]	-2.3	1.6%	-2%	-16%	?
CCc1nc2n(n1)C(O)c1cc([N+](=O)[O-])ccc1S2 (stereo not given)	5	-1%[15.4 µM]	-0.7	-1.6%	-7%	0%	0
Cc1nc2ccc(NC(=O)c3ccc(Br)o3)cc2s1	-2	-1%[15.4 µM]	-0.6	/	1%	12%	-23
COc1cccc(N2C(=O)CC(N3CCC(C(N)=O)(N4CCCCC4)CC3)C2=O)c1 (stereo not given)	-5	6%	4.5	-1.2%	2%	-6%	?
CC1(C)Cc2c(C#N)c(SCc3nc4ccccc4[nH]3)nc(N3CCOCC3)c2CO1	-5	-24%	3.4	?	3%	3%	-9
Cc1nnc2n(Cc3ccccc3)c(=O)c3c4c(sc3n12)COC(C(C)C)C4 (stereo not given)	-10	3%	3.7	0.5%	-6%	-4%	-18
NC(=S)NNC(=O)c1ccccc1Cl	-3	-5%	1.1	-2.8%	11%	8%	-17
Cc1cc(C)cc(NC(=O)C2CCCN2S(=O)(=O)c2cccc3cccnc23)c1 (stereo not given)	-8	20%	1.3	-0.5%	?	1%	-4
Cc1ccc(NC(=O)N2CCC(NC(=O)c3ccco3)CC2)cc1	-1	?	4.0	/	10%	16%	23
Later entries:
SMILES	D2 PAM	gsp ag	Menin MLL FP FL	ClpP mod	gsp antagonist	Sfp inh	TRPV1 PAM
Cc1sc2ncnc(N3CCC(C(=O)N(C)CC(=O)Nc4ccc(Cl)c(C(F)(F)F)c4)CC3)c2c1C	-6	14%[15.4 µM]	/	/	?	/	-4
O=c1[nH]c(CN2CCC(c3nc4ccccc4s3)CC2)nc2sc3c(c12)CCC3	/	/	-0.2	/	/	11%	-4
CNC(=O)NC(=O)C(C)N1CCN(C/C=C/c2ccccc2)CC1 (stereo not given)	-27	4%[15.4 µM]	1.2	/	/	18%	-6
CC(=O)CCc1ccccc1	-7	/	/	0.7%	9%	/	8
COC(=O)[C@@]1(Cc2ccc(F)cc2)[C@H]2c3cc(C(=O)N4CCCC4)n(CCSCCO)c3C[C@H]2CN1C(=O)c1ccccc1	/	/	-5.3	-0.8%	/	6%	/
CCOC(=O)C1=C(COC(=O)Cc2ccccc2[N+](=O)[O-])NC(=O)NC1C (stereo not given)	-16	-42%[inhibitor]	/	-2.5%	/	/	/
O=C(COc1ncnc2ccc(Br)cc12)NCc1ccco1	1	?	0.1	-0.4%	6%	-23%	-9
O=C1NCCOC(=O)[C@@H](Cc2ccc(F)cc2)C/C=C\C[C@@H]1CC(=O)N(CCO)Cc1ccccc1	-3	1%	/	1.4%	14%	/	/
Cc1c(O)ccc(-c2[nH]ncc2-c2nc3ccccc3s2)c1O	-2	16%	0.0	-4.0%	-10%	-3%	10
CS(=O)(=O)Cc1cccc(C(=O)NN(c2ccccc2)c2ccccc2)c1	-7	-5%[15.4 µM]	-6.5	-2.8%	-4%	3%	13
NNC(=O)CCc1nc2ccc(O)cc2[nH]1	-5	0%[15.4 µM]	9.1	/	-6%	-2%	21
COc1ccc2oc(=O)c(C(C)=O)cc2c1	-24	-26%	1.9	-8.6%	-5%	18%	5

Profiles as entered above. Order of screens: D2 PAM	gsp ag	Menin MLL FP FL	ClpP mod	gsp antagonist	Sfp inh	TRPV1 PAM
c1cn(CCCNC2CCCCCCC2)cn1 across the screens: -9	14%[15.4 µM]	/	-0.2%	-8%	/	/
CNC(=O)NC(=O)C(C)N1CCN(C/C=C/c2ccccc2)CC1 (stereo not given) across the screens: -27	4%[15.4 µM]	1.2	/	/	18%	-6
